Source: PubChem (National Center for Advancing Translational Sciences (NCATS))
EPAC2 ant val: Validation qHTS for antagonist of cAMP-regulated guanine nucleotide exchange factor 4 (EPAC2). Rap guanine nucleotide exchange factor 4 (Homo sapiens), Q8WZA2. EPAC2 Rap1B BODIPY-GDP exchange, fluorescence. Potency, µM (series often up to 112 µM), for the others: at the highest dose activity, negative = inhibition, most hits filed as inhibitors. actives 1.7% (n = 16,000). AID 1645886, 2021; active means well fitted inhibition curve with a large enough effect; inconclusive means small, poorly fitted or top-dose-only effect; inactive means no such curve, though single readings can be large or run the other way;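 further: 100% = activation by cAMP agonist control; nearly all actives have a fitted effect of over 40% in size; the record reuses the description of the EPAC1 agonist screen; inactives centre near -10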
Target sequence (Q8WZA2 whole entry, looked up): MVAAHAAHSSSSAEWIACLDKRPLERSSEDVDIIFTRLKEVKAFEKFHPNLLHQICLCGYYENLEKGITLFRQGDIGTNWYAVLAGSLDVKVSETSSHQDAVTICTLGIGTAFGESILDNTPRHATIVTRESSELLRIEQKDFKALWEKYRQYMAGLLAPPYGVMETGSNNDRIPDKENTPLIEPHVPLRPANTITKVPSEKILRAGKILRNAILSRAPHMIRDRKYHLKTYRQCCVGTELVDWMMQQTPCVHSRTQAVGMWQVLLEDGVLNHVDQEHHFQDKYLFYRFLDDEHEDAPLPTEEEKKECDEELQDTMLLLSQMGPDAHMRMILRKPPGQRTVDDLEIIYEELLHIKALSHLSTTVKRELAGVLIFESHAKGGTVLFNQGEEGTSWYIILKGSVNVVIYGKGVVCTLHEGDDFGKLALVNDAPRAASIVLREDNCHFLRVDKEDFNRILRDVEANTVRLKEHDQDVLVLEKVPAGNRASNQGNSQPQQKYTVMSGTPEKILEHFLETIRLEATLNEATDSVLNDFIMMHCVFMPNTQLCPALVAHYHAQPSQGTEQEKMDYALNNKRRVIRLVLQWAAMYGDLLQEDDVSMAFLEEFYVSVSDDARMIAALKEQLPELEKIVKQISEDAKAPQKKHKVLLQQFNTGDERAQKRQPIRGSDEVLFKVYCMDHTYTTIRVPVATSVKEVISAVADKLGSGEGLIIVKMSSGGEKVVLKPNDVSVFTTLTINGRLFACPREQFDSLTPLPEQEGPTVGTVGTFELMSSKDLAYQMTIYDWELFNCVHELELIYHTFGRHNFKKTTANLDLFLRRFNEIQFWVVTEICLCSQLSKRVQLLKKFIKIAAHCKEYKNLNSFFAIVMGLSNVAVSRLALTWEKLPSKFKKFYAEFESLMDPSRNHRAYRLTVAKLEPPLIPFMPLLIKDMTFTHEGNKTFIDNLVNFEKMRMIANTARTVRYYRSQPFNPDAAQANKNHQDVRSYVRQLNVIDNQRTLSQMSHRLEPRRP
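Normalized against a 6.5 mM cAMP agonist control, compounds were tested on 100 nM EPAC2 exchanging Rap1B-bound BODIPY-GDP (250 nM) for 50 uM GDP. Fluorescence drop (ex 480, em 540 nm) was tracked at room temperature over 30 min at 5-min intervals.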
Active calls of the source: *; u = inconclusive; & = joins results of further samples; [ ] = another dose, or the depositor's remark. Potency means the concentration at half of the fitted maximal effect. This is a subset; rates above refer to the full screens.

SMILES,EPAC2 ant val
C=C(Br)COC(c1ccco1)[C@H](Cc1ccccc1)NC(=O)OC(C)(C)C (stereo not given in full),-40%
COc1ccc(OC)c(CN2CCOc3ccc(C(O)c4cccnc4)cc3C2)c1 (stereo not given),-30%
COc1ccc(C(=O)N2CCC3(CCN(C(=O)Nc4cccc(F)c4)CC3)CC2)cc1,-33%
Cc1noc(C)c1-c1cncnc1NCCN1CCOCC1,-9%
COc1ccccc1CCn1c(=O)c(-c2ccccc2)nc2cncnc21,-25%
COc1ccc(-c2nc3cncnc3n(-c3ccccc3)c2=O)cc1,-8%
OC(CN1CCCCC1)c1ccccc1 (stereo not given),-25%
COc1ccccc1-c1cc(Nc2ccn[nH]2)ncn1,-18%
O=C(NO)c1ccccc1,16%[239 µM]
C[C@@H]1[C@H](c2ccccc2)OCCS(=O)(=O)N1Cc1ccc(Cl)cc1,u
O=C(N[C@@H]1c2ccccc2C2(CCN(Cc3c(O)ccc4ccccc34)CC2)[C@H]1O)c1ccccc1,-29%
COc1ccc(Oc2ncc3nc(-c4cc(F)cc(F)c4)c(=O)n(C[C@H]4CCCO4)c3n2)cc1,-35%
N#C[C@H](Cc1ccc(O)cc1)c1ccc(O)cc1,-26%
CNc1ccc(/C=C/c2ccccc2)cc1,u
FC(F)(F)c1ccccc1-c1nc(NC2CCNCC2)c2ccccc2n1,-6%
O=S1(=O)CCOC[C@H](CC2CCCCC2)N1Cc1cccc(Cl)c1,u
O=c1c(-c2ccc(Cl)cc2)nc2cnc(N3CCOCC3)nc2n1C1CC1,-12%
CCCN1C[C@H](CSC)C[C@@H]2c3cccc4[nH]cc(c34)C[C@H]21,-19%&14%&-12%
COc1ncc2nc(-c3ccc(F)cc3)c(=O)n(CCc3ccccc3)c2n1,4%
C[C@H](CCC(=O)NCCS(=O)(=O)O)C1CC[C@H]2C3CC[C@@H]4C[C@H](O)CC[C@]4(C)C3C[C@H](O)[C@]12C (stereo not given in full),-14%
N#Cc1ccccc1OCC(O)CNCCNC(=O)Nc1ccccc1 (stereo not given),-15%
CCOC(=O)C[C@H]1c2ccccc2S(=O)(=O)N1Cc1cc(OC)c(OC)c(OC)c1,11%
CCC1(C)CC(=O)NC1=O (stereo not given),u
COc1ccccc1C1CN(Cc2cccc(OCCO)c2)Cc2ccccc2O1 (stereo not given),u
OC[C@H]1O[C@@H](n2cnc3c2NC=NC[C@H]3O)C[C@@H]1O,10%
COc1ccc(NC(=O)N2CCCC3(CCN(C(=O)c4csnn4)CC3)C2)cc1,u
COc1ccc(Oc2ncc3nc(-c4cccs4)c(=O)n(Cc4cccc(OC)c4)c3n2)cc1,-9%
COc1ccc(OC)c(/C=C/c2nc3ccccc3nc2C)c1,u
CCOC(=O)c1c(C)cc(O)c(C)c1O,-14%
CC(C)(Cc1c[nH]c2ccccc12)NCC(O)COc1ccccc1C#N (stereo not given),-1%
CN=c1nc(-c2ccccc2)n(-c2ccccc2)s1,25%
COc1ccc(CNc2ncnc3ccc(-c4cccc(C#N)c4)cc23)c(OC)c1,-15%
CCCCCCCCC#CCC#CCC#CCCCC(=O)O,-9%[11.4 µM]
CN(C)Cc1ccccc1-c1nc(N(C)Cc2ccco2)c2ccccc2n1,-13%
O=C(c1csnn1)N1CCC2(CCCN(c3ncccn3)C2)CC1,-23%
CS(=O)(=O)N1CCC2(CC1)CN(c1ccccn1)C2,-15%
COc1ccccc1CNc1nc(-c2ccc(C(=O)N(C)C)cc2)nc2ccccc12,-29%
N[C@@H](CCCC(=O)O)C(=O)O,-19%
CN(C)Cc1ccccc1-c1nccc(N(C)C)n1,6%
CC(=C\c1ccccc1)/C=C1/SC(=S)N(CC(=O)O)C1=O,u
C=C1CC[C@H](O)CC1=C/C=C1\CCC[C@]2(C)[C@@H]([C@H](C)/C=C/[C@H](C)C(C)C)CC[C@@H]12,-25%
CCCCCCCCCCCCCCCC(=O)O[C@H](CC(=O)O)C[N+](C)(C)C,u
COc1ccccc1N1CCN(c2nc(CNC(=O)c3ccccc3F)nc3ccccc23)CC1,u
CCN1\C(=C/C=C/C=C/c2sc3ccccc3[n+]2CC)Sc2ccccc21,u
CC(C)CCC[C@@H](C)[C@H]1CC[C@H]2[C@@H]3CC[C@@H]4C[C@H](O)CC[C@]4(C)[C@H]3CC[C@]12C,0%
COCc1c(C(=O)NC2CCCC2)cnn1-c1nccc(-c2ccco2)n1,-5%
COc1ccc(C(=O)NCc2nnc(SC)n2-c2ccccc2C)c(OC)c1OC,1%
COc1ccc(CN2C[C@H](Cc3ccccc3)[C@@H](CC(=O)Nc3ccccc3)C2=O)cc1,u
COc1ccccc1-c1ccnc(-n2ncc(C(=O)N[C@H]3CCCCNC3=O)c2C2CC2)n1,-15%
C=C1CCC(OC(C)=O)/C(C)=C/CC2[C@H]1CC2(C)C (stereo not given in full),-26%
O=C1[C@H](Cc2ccccc2)NC/C=C\C[C@H](c2ccco2)N1Cc1ccccc1,-13%
CC(=O)O[C@](C)(CCC=C(C)C)C1CC=C(C)CC1 (stereo not given in full),-5%
N#Cc1cccc(-c2nc(NCc3cccnc3)c3ccccc3n2)c1,-19%
C=C[C@H](N)CCC(=O)O,-16%
CCCCCCCCCCCCC[N+](C)(C)Cc1ccccc1,-27%
CCOC(=O)C[C@H]1c2ccc(C(F)(F)F)cc2S(=O)(=O)N1C1CCCC1,-28%

Remaining list, next part.
SMILES,EPAC2 ant val
O=C(c1ccco1)N(Cc1cc2cc3c(cc2nc1N1CCOCC1)CCC3)CC1CCCO1 (stereo not given),-12%
COc1ccc2c(c1)c(CC(=O)N1CCOCC1)c(C)n2C(=O)c1ccc(Cl)cc1,u
CC(C)(COP(=O)(O)OP(=O)(O)OC[C@H]1O[C@@H](n2cnc3c(N)ncnc32)[C@H](O)[C@@H]1OP(=O)(O)O)C(O)C(=O)NCCC(=O)NCCS (stereo not given in full),-4%
CN1CCc2cccc3c2C1Cc1ccc(O)c(O)c1-3 (stereo not given),-11%&-13%
Cn1c2ccccc2c(=O)c2ccc(F)cc21,u
CCCCCCCCCCCCCCCC(=O)NC(C)C,-10%
CCCCC/C=C\C/C=C\CCCCCCCC(=O)NC(C)c1ccccc1 (stereo not given),-17%
COc1ccc(CN2CCCC(c3nc(C)ncc3-c3ccc(F)cc3)C2)c(OC)c1OC (stereo not given),-28%

(listing goes on)
Structure | EPAC2 ant val
Cc1noc(C)c1-c1cc(NC2CC2)ncn1 | -5%
CS(=O)(=O)c1ccc([C@@H](O)[C@@H](CF)NC(=O)C(Cl)Cl)cc1 | 2%[56.6 µM]
Oc1cc(-c2nc3ccccc3s2)cc2c1OCCN(Cc1cccn1-c1ccccn1)C2 | -11%
CCn1c(=O)[nH]c2cc(Cl)c(Cl)cc21 | u
COc1ccccc1CNc1ccnc(-c2cccc(NS(C)(=O)=O)c2)n1 | -20%
CC(=O)Oc1ccc2c(c1)CCC1C2CC[C@@]2(C)C1CC(OC(C)=O)C2OC(C)=O (stereo not given in full) | -27%
C[C@]12CCC3c4ccc(O)cc4CCC3C1CCC2OC(=O)CCC1CCCC1 (stereo not given in full) | -17%
CCOC(=S)SSC(=S)OCC | 4%
COc1ccc(-c2nc3cnc(N4CCNCC4)nc3n(-c3ccc(OC)cc3)c2=O)cc1 | -21%
COc1ccc(/C=C/C(=O)c2ccc(O)cc2O)cc1OC | -21%
CN(C)CCCN1c2ccccc2C(C)(C)c2ccccc21 | 3%
O=C(c1ccc(F)c(F)c1)N1CCOc2ccc(CN3CCN(Cc4ccccn4)CC3)cc2C1 | -10%
CN(C)CCC=C1c2ccccc2CCc2ccccc21 | -19%&-19%&-7%
Cc1c(CN2CCOc3ccc(C(C)(O)COc4ccccc4)cc3C2)cnn1C (stereo not given) | -9%
COCCCNC(=O)c1cnn(-c2ncc3c(n2)-c2ccccc2CCC3)c1C | -18%
COc1ccccc1-c1cncnc1Nc1ccc(F)cc1 | -9%
Cc1c(C(=O)NCC(C)(C)N2CCOCC2)cnn1-c1ncc2c(n1)-c1ccccc1CC2 | u
O=C1CCN(Cc2ccc(Br)cc2)CCN1[C@H](CO)c1ccccc1 | u
COc1cc(-c2noc(C)c2C#CCCN2C(=O)c3ccccc3C2=O)cc(OC)c1OC | -22%
COc1cc2c(c(OC)c1OC)-c1ccc(OC)c(=O)cc1C(NC(C)=O)CC2 (stereo not given) | -22%
NC1(C(=O)O)CCCC1 | -8%
O=c1c(-c2ccc(Cl)cc2)nc2cnc(N3CCOCC3)nc2n1-c1ccccc1 | -21%
NCCO/C=C/[C@H](N)C(=O)O | -25%
COc1ccc(-c2nc3cnc(N4CCN(C)CC4)nc3n(-c3ccc(OC)cc3)c2=O)cc1 | -4%
Cc1nc(NCc2ccc3nsnc3c2)sc1-c1ccn(C)n1 | -25%
CN(CC[C@@H](Oc1ccc(C(F)(F)F)cc1)c1ccccc1)CC(=O)O | -19%
C[C@@H]1CC[C@H]2[C@H](C)[C@H]3CC[C@H]4C5[C@@H](O)CC6=CC(=O)CC[C@]6(C)[C@H]5C[C@H]4C3C(=O)N2C1 (stereo not given in full) | 17%
COc1ccc(NC(=O)C2CC23CCN(Cc2cccc4ncccc24)CC3)cc1Cl (stereo not given) | -26%
COC(=O)c1cccc(-c2cc(Cl)c3c(c2)CC(CNC(=O)c2cccnc2)O3)c1 (stereo not given) | -6%
CCOC(=O)C(C#N)=C(c1ccccc1)c1ccccc1 | u
O=C(c1n[nH]c2c1CCCC2)N1CCOc2ccc(C(O)C3CCCCC3)cc2C1 (stereo not given) | u
COc1c(C2=CC(=O)N(C)C2=O)c2c(n1C)C(=O)c1ccccc1C2=O | 22%

Filtered by structure, those above containing fluorine (12)
Structure | EPAC2 ant val
COc1ccc(C(=O)N2CCC3(CCN(C(=O)Nc4cccc(F)c4)CC3)CC2)cc1 | -33%
COc1ccc(Oc2ncc3nc(-c4cc(F)cc(F)c4)c(=O)n(C[C@H]4CCCO4)c3n2)cc1 | -35%
FC(F)(F)c1ccccc1-c1nc(NC2CCNCC2)c2ccccc2n1 | -6%
COc1ncc2nc(-c3ccc(F)cc3)c(=O)n(CCc3ccccc3)c2n1 | 4%
COc1ccccc1N1CCN(c2nc(CNC(=O)c3ccccc3F)nc3ccccc23)CC1 | u
CCOC(=O)C[C@H]1c2ccc(C(F)(F)F)cc2S(=O)(=O)N1C1CCCC1 | -28%
Cn1c2ccccc2c(=O)c2ccc(F)cc21 | u
COc1ccc(CN2CCCC(c3nc(C)ncc3-c3ccc(F)cc3)C2)c(OC)c1OC (stereo not given) | -28%
CS(=O)(=O)c1ccc([C@@H](O)[C@@H](CF)NC(=O)C(Cl)Cl)cc1 | 2%[56.6 µM]
O=C(c1ccc(F)c(F)c1)N1CCOc2ccc(CN3CCN(Cc4ccccn4)CC3)cc2C1 | -10%
COc1ccccc1-c1cncnc1Nc1ccc(F)cc1 | -9%
CN(CC[C@@H](Oc1ccc(C(F)(F)F)cc1)c1ccccc1)CC(=O)O | -19%

Next part
Structure | EPAC2 ant val
COc1ccccc1CNc1ncncc1-c1ccccc1CN(C)C | -16%
CCCNC(C)C(=O)Nc1ccccc1C (stereo not given) | -10%&-5%
CC1=CC[C@@]2(CO)COC(c3ccccc3O)C1C2 (stereo not given in full) | -2%
Cc1cccc(CNc2ccnc(-c3cccnc3)n2)c1 | -18%
c1csc(CNc2ncnc3ccc(-c4ccc5c(c4)OCO5)cc23)c1 | -16%
Cc1ccc(S(=O)(=O)NC(=O)NN2CC3CCCC3C2)cc1 (stereo not given) | -13%
CC(=O)OC[C@H]1O[C@@H](O[C@H]2[C@H](O)[C@@H](OC(=O)c3ccccc3C(=O)O)[C@H](O)O[C@@H]2COC(C)=O)[C@H](O)[C@@H](OC(=O)c2ccccc2C(=O)O)[C@@H]1O | 12%
Cc1cccc(CNc2cc(-c3ccoc3)ncn2)c1 | -21%
Cc1c(OCC(F)(F)F)ccnc1CS(=O)c1nc2ccccc2[nH]1 (stereo not given) | u
COC(=O)C1CCN(Cc2ccc3c(c2)CN(C(=O)C2CCCN(c4ccccn4)C2)CCO3)CC1 (stereo not given) | -26%
O=C(c1ccc(F)cc1)C1CCN(CCCCc2ccccc2)CC1 | -11%
Cn1c(=O)cnc2cnc(Nc3ccccc3)nc21 | -17%
NCCCCN=C(N)N | 5%&-3%&2%&22%&-23%
CC1=C(CCC(=O)O)c2cc3nc(cc4[nH]c(cc5[nH]c(cc1n2)c(C)c5C(C)O)c(C)c4C(C)O)C(C)=C3CCC(=O)O (stereo not given) | 3%
OC[C@H]1O[C@@H](n2cnc3cncnc32)[C@H](O)[C@@H]1O | -6%&-2%
C/C(=C\C(=O)OCCCCCCCCC(=O)O)C[C@@H]1OC[C@H](C[C@@H]2O[C@H]2[C@@H](C)[C@H](C)O)[C@@H](O)[C@H]1O | -6%
CN1CCN(c2ncncc2-c2ccccc2Cl)CC1 | -9%
CC(=O)O[C@H]1CC[C@@]2(C)C(=CC[C@@H]3[C@@H]2CC[C@]2(C)C(c4cccnc4)=CC[C@@H]32)C1 | -10%
COc1ncc2nc(-c3ccc(F)cc3)c(=O)n(Cc3cccs3)c2n1 | -8%
COC(=O)c1ccccc1C(=O)NCc1nc(N2CCCC2)c2cccc(C)c2n1 | -30%
COc1ccc(Oc2ncc3nc(-c4cccc(C#N)c4)c(=O)n(C)c3n2)cc1 | -6%
CC1(C)OC2C(CO)OC(n3cnc4c(=O)[nH]c(N)nc43)C2O1 (stereo not given) | -12%
COc1ccccc1CN1CCOc2ccc(C(C)(O)CN(C)C)cc2C1 (stereo not given) | -2%
